Source: PubChem BioAssay (National Center for Advancing Translational Sciences (NCATS))
HPGD block: inhibitors of human 15-hydroxyprostaglandin dehydrogenase (HPGD). P15428. purified HPGD, NADH fluorescence kinetic, PGE2 substrate. Potency, µM, for inactives: top-dose activity change, negative = inhibition, actives largely listed as inhibitors. hit rate 4.3% among 150,000. AID 894; active = well fitted inhibition curve with a large enough effect (not every such curve was filed as active); inconclusive = small, poorly fitted or top-dose-only effect, or another doubt; inactive = no such curve, though single readings can be large or run the other way;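 also: top concentration of the series not given in the record; plate controls included wells without enzyme; inactives centre near -10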
Target sequence (P15428 whole entry, looked up): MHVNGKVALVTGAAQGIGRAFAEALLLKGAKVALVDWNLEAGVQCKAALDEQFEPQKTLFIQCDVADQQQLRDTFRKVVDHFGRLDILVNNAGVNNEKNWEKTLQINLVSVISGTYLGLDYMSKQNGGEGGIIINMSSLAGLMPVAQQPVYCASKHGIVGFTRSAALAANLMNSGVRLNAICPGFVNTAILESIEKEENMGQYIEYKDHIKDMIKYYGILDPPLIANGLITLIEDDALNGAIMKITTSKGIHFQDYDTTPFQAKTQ
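NADH formation kinetics: reaction with 30 uM PGE2 and 1 mM NAD+ (final), 20 nM enzyme, Tris-HCl pH 8 with Tween 20, after 15 min compound preincubation at room temperature. Fluorescence change, last versus first of five reads.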
* = called active by the depositor; ? = inconclusive; & = joins results of further samples. % is scaled to controls: 0 for no effect and ±100 for the full control effect; potency is read from the fitted curve at half-maximal effect. The list is partial (hit frequency here may not be typical).

SMILES	HPGD block
Cc1cc(Br)ccc1OCC(=O)NNC(=O)c1ccc(NC(=O)C2CC2)cc1	-8%
COC(=O)c1ccc(CSc2nc3c(c(=O)n2-c2ccc(F)cc2)SCC3)o1	-16%
NS(=O)(=O)c1ccc(CCNC(=O)Cc2c[nH]c3ccccc23)cc1	2%
Cc1cn2c(nc1=O)OC1C(O)C(COC(=O)c3ccccc3)OC12 (stereo unspecified)	-1%
Cc1nc([N+](=O)[O-])c(Sc2nc3ccc([N+](=O)[O-])cc3[nH]2)n1Cc1ccccc1	?
O=C(NNC(=O)c1cc(-c2ccccc2)nn1-c1ccccc1)c1ccccc1	-18%
CSc1nc2nc3c(cn2n1)C(=O)CC(c1ccccc1)C3 (stereo unspecified)	-21%
O=C(Nc1cccc(C(=O)N2CCCC2)c1)c1ccccc1Cl	-16%
CC(=O)OC1COC(n2ccc3cc([N+](=O)[O-])ccc32)C(OC(C)=O)C1OC(C)=O (stereo unspecified)	-5%
C=CCOc1ccc(Cl)cc1C(=O)O	-10%
COCCCN1C(=O)C(=O)/C(=C(/O)c2ccc(OC(C)C)cc2)C1c1cccnc1 (stereo unspecified)	-17%
CCCCNC(=O)C1CC(c2c(Cl)cccc2Cl)=NO1 (stereo unspecified)	-22%
Cc1ccc(NC(=O)Cn2nc(C(F)(F)F)c3c2CCC3)cc1	-20%
CSc1nc(C)c2c(n1)N(c1cccc(C)c1)CC2	?
C#CCSc1nccc(-c2nn(-c3ccc(C)cc3)ccc2=O)n1	?
C=CCn1c(CC(=O)OC)csc1=Nc1ccc(C(C)=O)cc1	-10%
COCCn1nnnc1C(c1ccc(O)c(OC)c1)N1CCc2ccccc2C1 (stereo unspecified)	-8%
COc1ccccc1OCC(=O)NCCNC(=O)COc1ccccc1OC	-2%
Cc1cc(=O)oc(C)c1C(=O)NCCC(C)C	-3%
CCC(C)(C)n1nnnc1C(c1ccncc1)N1CCC(Cc2ccccc2)CC1 (stereo unspecified)	-3%
CCCCC[C@H](O)/C=C/C=C\C/C=C\C/C=C\CCCC(=O)O	-2%
CO/N=C/C(=N\Nc1ccc(C)cc1)C(=O)c1ccc(OC)cc1	-2%
O=S(=O)(NCC1CCN(S(=O)(=O)c2ccccc2)CC1)c1ccccc1	-2%
CCCc1[nH]nc2c1C(c1ccc(Br)s1)C(C#N)=C(N)O2 (stereo unspecified)	-6%
O=C(CSc1nnnn1-c1ccccc1)NCc1ccco1	-13%
Cc1ccc2cccc(NC(=S)NC(=O)c3ccccc3)c2n1	-7%
O=C(NC(=S)NCCN1CCOCC1)c1ccccc1Br	0%
O=C(N/N=C/c1c(O)n(-c2ccc(Cl)cn2)c(=O)c2ccccc12)C1CC1	-16%
Cc1ccc(C)c(NC(=O)C2Cc3ccccc3CN2C(=O)OCc2ccccc2)c1 (stereo unspecified)	-3%
COc1ccc(Cc2nc3ccccc3n2CC(=O)N/N=C/c2ccc(C)cc2O)cc1OC	-25%
COC(=O)C(C)Oc1ccc2c3c(c(=O)oc2c1)CCCCC3 (stereo unspecified)	?
CCN(CC)S(=O)(=O)c1cccc(-c2nnc(SCc3nc4ccccc4s3)o2)c1	-12%
Cc1ccc2c(c1)nnn2C1CCN(S(C)(=O)=O)CC1	-4%
COc1ccc(/C=C/C(=O)Nc2nc(C)c(C(=O)N(C)C)s2)cc1	?
COCCCN1Cc2cccc(C(=O)O)c2C1=O	-9%
CCN(CC)CCNc1nc(-c2ccccc2)nnc1C(F)(F)F	-12%
Cc1csc(NC(=O)c2ccc(-c3ccc(Cl)cc3Cl)o2)n1	?
CCCCNC(=O)c1ccc2c(c1)N(CC)C(=O)CS2	-15%
Cc1cc(C(=O)NN=C2C3CC4CC(C3)CC2C4)c2ccccc2n1	-15%
CC(CC1C(C#N)=C(N)OC2=C1C(=O)CCC2)c1ccccc1 (stereo unspecified)	-12%
CCOc1ccc2nc(NC(=O)Nc3ccccc3)sc2c1	-2%
CCOc1ccc(C(=O)N2CCCC2C(=O)O)cc1 (stereo unspecified)	-7%
CCOC(=O)Cc1csc(NC(=O)c2sc3nc4ccc(CC)cc4cc3c2N)n1	-19%
CC1CCN(S(=O)(=O)c2ccc(NC(=O)CSc3ncccc3C(=O)O)cc2)CC1	14µM*
CC(C)(C)OC(=O)COc1cc(OCC(=O)OC(C)(C)C)c2c(=O)cc(-c3ccccc3)oc2c1	?
CN[C@@H]1[C@H](O[C@H]2[C@@H](O[C@@H]3[C@@H](O)[C@@H](O)[C@@H](N=C(N)N)[C@@H](O)[C@@H]3N=C(N)N)O[C@@H](C)[C@]2(O)CO)O[C@H](CO)[C@@H](O)[C@@H]1O	-4%
CC(C)NC(=O)c1ccccc1S(=O)c1ccccc1C#N (stereo unspecified)	2%
CC1CCCC/C1=N/Nc1ccc([N+](=O)[O-])cc1[N+](=O)[O-] (stereo unspecified)	-14%
COc1ccccc1CN1CCC2(CC1)CCN(C(=O)c1cc(C(F)(F)F)cc(C(F)(F)F)c1)CC2	-13%
CCS(=O)(=O)N1CCC(C(=O)NCCCOC)CC1	-10%
CCCCOc1ccc(CSc2ncn[nH]2)cc1	-9%
CCCCN(CCCC)CC(O)CN(c1cc([N+](=O)[O-])ccc1OC)S(=O)(=O)c1ccccc1 (stereo unspecified)	-14%
O=C(NC1CCCCC1)N(Cc1cc2cc3c(cc2[nH]c1=O)OCCO3)C1CCCCC1	-29%
COc1ccc(C(=O)COC(=O)CNC(=O)c2cc(OC)cc(OC)c2)cc1	-4%
Cn1nc(C(F)(F)F)c(/C=N/OCc2c(Cl)cccc2Cl)c1Cl	-5%
NC(=O)c1cc2nc(-c3ccco3)cc(C(F)(F)F)n2n1	?
CCCc1[nH]n(-c2nc3ccccc3s2)c(=O)c1C=NCC(C)C	-16%
CCOC(=O)c1ccccc1NC(=O)CSc1nnc(Cc2cccn2C)n1-c1ccc(C)cc1	-13%
O=c1c2ccccc2nc2n1CCCCC2	2%
CC(=O)C1=C(C)N(CC2CC2)C(=O)N[C@H]1c1ccccc1	1%&-1%

A draw from above in order of molecular weight, high to low.
SMILES	HPGD block
CCOC(=O)c1ccccc1NC(=O)CSc1nnc(Cc2cccn2C)n1-c1ccc(C)cc1	-13%
CC(C)NC(=O)c1ccccc1S(=O)c1ccccc1C#N (stereo unspecified)	2%
NC(=O)c1cc2nc(-c3ccco3)cc(C(F)(F)F)n2n1	?

Following part.
SMILES	HPGD block
COc1ccc(CCNc2nc(N3CCOCC3)nc(N3CCOCC3)n2)cc1OC	0%
COC(=O)NCc1ccc2c(c1)OCO2	-7%
CCOc1ccc2nc(NC(=O)c3c([N+](=O)[O-])cnn3CC)sc2c1	-13%
COc1cccc(N2CCN(C(=O)Nc3ccc4c(c3)NC(=O)CO4)CC2)c1	-10%
COc1ccc(OCCNS(=O)(=O)c2ccccc2)cc1	-10%
CCCCc1ccc(NS(=O)(=O)N(C)C)cc1	?
COc1ccccc1N(O)C1CC(=O)N(c2ccc(Br)cc2)C1=O (stereo unspecified)	28µM*
CC1(C)CC(=O)C2=C(C1)N(c1ccc(F)cc1)C(=O)C2(NC(=O)c1ccccc1)C(F)(F)F (stereo unspecified)	-4%
O=C1CN(C(=O)COC(=O)c2ccccc2NC(=O)c2ccco2)c2ccccc2N1	-11%
Cc1cc(C)c2c(c1)/C(=N/NC(=S)Nc1ccc(F)cc1)CCC2	-19%
O=c1cc(CO)oc(CN2CCN(c3cccc(C(F)(F)F)c3)CC2)c1O	-8%
COc1ccc(Cl)cc1C(=O)NCC#N	-6%
NC(=O)/C(=C\c1ccncc1)c1cccc2ccccc12	-7%
CCN(CC)c1ccc(/C=N/Nc2nc(C)cc(=O)[nH]2)cc1	?
C[C@@H]1C=C[C@](Cc2ccccc2)(C(=O)NCCc2c[nH]c3ccccc23)N1C(=O)c1ccccc1	-12%&-5%
O=C(CSc1ccc(Cl)cc1)NC1CCCc2ccccc21 (stereo unspecified)	-7%
O=C(Nc1ccc(C(=O)N2CCCCC2)cc1)c1ccc(Br)cc1	0.63µM*
Cc1cccc(NC(=O)C2C(C(=O)O)C3C=CC2C32CC2)c1C (stereo unspecified)	-17%
O=C(c1ccccc1)C1CCc2occc2C1=O (stereo unspecified)	-9%
S=C(c1ccc(N2CCCC2)cc1)N1CCCCC1	14µM*

Reprinted from the part before: 7 compounds; new compounds follow.
SMILES	HPGD block
CCN(CC)c1ccc(/C=N/Nc2nc(C)cc(=O)[nH]2)cc1	?
C[C@@H]1C=C[C@](Cc2ccccc2)(C(=O)NCCc2c[nH]c3ccccc23)N1C(=O)c1ccccc1	-12%&-5%
O=C(CSc1ccc(Cl)cc1)NC1CCCc2ccccc21 (stereo unspecified)	-7%
O=C(Nc1ccc(C(=O)N2CCCCC2)cc1)c1ccc(Br)cc1	0.63µM*
Cc1cccc(NC(=O)C2C(C(=O)O)C3C=CC2C32CC2)c1C (stereo unspecified)	-17%
O=C(c1ccccc1)C1CCc2occc2C1=O (stereo unspecified)	-9%
S=C(c1ccc(N2CCCC2)cc1)N1CCCCC1	14µM*
Cc1ccc(-c2cc(C(=O)NCCCn3ccnc3)c3ccccc3n2)s1	?
c1ccc2nc3c(nc2c1)sc1nc2ccccc2n13	-21%
COC(=O)Nc1nc2ccc(SC(C)C)cc2[nH]1	-13%
CCOC(=O)c1cn(CC(=O)Nc2ccc(C(C)C)cc2)nn1	-11%
N/C(=N\OC(=O)c1ccccc1Cl)c1ccccn1	-17%
COc1ccc(C2=CC(c3ccc(C)cc3)n3nnnc3N2)cc1 (stereo unspecified)	?
CC(NC(=O)CCOc1ccccc1)c1ccccc1 (stereo unspecified)	-14%
Cc1ccc(C(O)c2cccnc2)o1 (stereo unspecified)	-9%
CC(C)(C)OC(=O)N1CCC[C@H]1C(O)(c1ccccc1)c1ccccc1	0%
CCn1c(SCc2ccc(C)cc2)nnc1-c1nn(-c2ccccc2)ccc1=O	-15%
CCOC(=O)C1=C(c2ccccc2)Nc2ncnn2C1c1cc(OC)ccc1OC (stereo unspecified)	-4%
O=S(=O)(NC1CCCCC1Oc1ccccc1)c1ccccc1 (stereo unspecified)	-11%
CCn1c(NC(=O)c2ccco2)c(-c2ccccc2Cl)c(=O)c2ccccc21	-2%
CC(C)(O)C#Cc1ccc(C(=O)N2CCN(c3ccccc3)CC2)cc1	-2%
COc1ccccc1NC(=O)CSc1nnc(-c2ccco2)n1Cc1ccco1	-22%
COc1ccc(Cl)cc1-n1c(C)ccc1C	-7%
COc1ccc(C(=O)CN(C(=O)c2ccc(Cl)cc2)N2C(=O)C3CCCCC3C2=O)cc1 (stereo unspecified)	-5%
O=c1cc(CSc2nnc(COc3ccccc3)o2)c2ccccc2[nH]1	?
COc1ccc(C(C(=O)NC(C)(C)C)N(C(=O)CNC(=O)c2cccs2)c2ccc(C(C)C)cc2)cc1OC (stereo unspecified)	-12%
CCN(CC(=O)O)C(=O)c1cccnc1	-4%
Cc1ccccc1C(=O)O	-9%
Cc1ccc(C)n1-n1c(C)nc2scc(-c3ccccc3)c2c1=O	-8%
NC(=O)C1CCN(C(=O)CN2CCCc3ccccc32)CC1	?
COc1ccc(OC)c(C2/C(=C(/O)c3ccccc3)C(=O)C(=O)N2Cc2ccco2)c1 (stereo unspecified)	-1%
O=C(NC1CCCC1)c1ccc(Br)o1	16µM*
N=c1c2c3c(sc2nc2n1CCCCC2)CCCCC3	-13%
Cn1cccc1C(=O)N1CCC2(CC1)CN(Cc1ccc(C#N)cc1)C2	-4%
Cc1nn(-c2nnc(NCc3ccccc3)nn2)c(C)c1Br	14µM*
Cc1ccccc1NC(=O)C1C2CCC(O2)C1C(=O)O (stereo unspecified)	0%
CNC(=O)CCCCCNS(=O)(=O)c1ccc(C)cc1	-6%
CCCn1nnc(NC(=O)COc2ccc(C3CCCCC3)cc2)n1	-11%
N#CC1=C(N)OC2=C(C(=O)CCC2)C1C1CC=CCC1 (stereo unspecified)	20µM*
Nc1ncnc2c1ncn2C1OC(CO)C(O)C1O (stereo unspecified)	-10%&-10%
O=C(Nc1cc2c(cc1Br)OCCO2)c1cccs1	-15%
N#C/C(C(=O)NCc1ccco1)=C1/SC=C(c2ccccc2)N1c1ccccc1	?
Cc1ccc(-n2c(=O)cc(N3CCN(C(=O)c4ccco4)CC3)[nH]c2=O)cc1	-2%
COc1ccc(S(=O)(=O)Nc2cc(C)cc(C)n2)c2ccccc12	-26%
CC(Cc1ccccc1)NC(=O)C1CCCNC1=O (stereo unspecified)	-13%
COC(=O)c1ccc(CN2C(=O)NC3(CCCc4ccccc43)C2=O)o1 (stereo unspecified)	-7%
O=C(Nc1nncs1)C1c2ccccc2Oc2ccccc21	-2%
O=c1cc(N2CCc3ccccc32)[nH]c(=O)n1Cc1ccc(F)cc1	-2%
Cc1ccc2nc(N3CCN(C=O)CC3)nc(-c3ccccc3)c2c1	-25%
CCN1CCN(c2cc(C(C)(C)C)nc3c(-c4ccccc4)c(C)nn23)CC1	?
O=C(Cc1ccccc1)NCCc1cn2ccsc2n1	-19%
Cc1c(C)c2ccc(OS(C)(=O)=O)c(C)c2oc1=O	-16%
CCC(=O)Nc1cc(C)c(NC(=O)c2ccco2)cn1	-7%
COC(=O)Cc1c(C)c2ccc(OCc3nn[nH]n3)cc2oc1=O	?
O=[N+]([O-])c1cc(C2Nc3cccc4cccc(c34)N2)ccc1Cl	-10%
COC(=O)c1cn(NC(=O)/C=C/c2cccc(OC)c2OC)c(=O)c2ccccc12	?
